# High-throughput results (PubChem)
# Cruzain inh noDet – qHTS Assay for Promiscuous and Specific Inhibitors of Cruzain (without detergent) | actives 2.3% (n = 200,000) | Potency, µM, without a hit: max response, negative = inhibition, most hits filed as inhibitors | purified cruzain, Z-FR-AMC fluorescence, no detergent | Cruzipain (Trypanosoma cruzi), P25779;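 also: plate controls were enzyme without inhibitor for no effect and buffer without enzyme for full effect; nearly all actives have a fitted effect of over 40% in size; top concentration of the series not given in the record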
# Target sequence (P25779 123-467 limits assumed): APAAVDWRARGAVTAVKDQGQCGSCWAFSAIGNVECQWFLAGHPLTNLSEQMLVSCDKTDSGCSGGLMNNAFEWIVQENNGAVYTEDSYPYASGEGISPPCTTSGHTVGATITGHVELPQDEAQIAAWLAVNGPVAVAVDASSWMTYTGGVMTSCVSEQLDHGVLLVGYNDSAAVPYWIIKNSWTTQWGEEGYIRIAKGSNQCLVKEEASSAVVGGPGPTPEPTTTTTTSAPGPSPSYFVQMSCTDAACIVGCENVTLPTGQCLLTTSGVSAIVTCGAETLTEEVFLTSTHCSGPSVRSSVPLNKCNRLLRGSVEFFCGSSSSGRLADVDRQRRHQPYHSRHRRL
#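 Purified cruzain at 1.5 nM, pre-incubated 15 min with compound at room temperature in 100 mM sodium acetate pH 5.5, 5 mM DTT, 0.00005% Triton X-100. Reaction started with 2 uM Z-FR-AMC; AMC fluorescence increase over 60 s gives rate.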
# NS1 function inh – qHTS Assay for Inhibitors of Influenza NS1 Protein Function | AID 2326, 2010 | S. cerevisiae slowed by influenza A NS1, growth recovery by OD600 | Potency, µM (titrated, usually from 46.1 µM), for inactives: at the highest dose activity, positive = more growth | actives 0.4% (n = 270,000); active means well fitted rising curve with a large enough effect; inconclusive means small, poorly fitted or top-dose-only effect; inactive means no such curve, though single readings can be large or run the other way; also: nearly all actives have a fitted effect of over 50% in size
#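 Growth recovery, yeast-based: influenza A NS1 expressed in S. cerevisiae causes slow growth, and suppressors are detected by OD600. The parent strain without NS1 is used as positive control.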
# Cruzain Triton – qHTS Assay for Promiscuous and Specific Inhibitors of Cruzain (with detergent); actives 0.43% (n = 200,000); AID 1478, 2009; Cruzipain (Trypanosoma cruzi), P25779; purified cruzain, Z-FR-AMC fluorescence, 0.01% Triton; Potency, µM, for inactives: max response, negative = inhibition, hits mostly inhibitors;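 also: plate controls were neutral wells for no effect and buffer without enzyme for full effect; nearly all actives have a fitted effect of over 40% in size; top concentration of the series not given in the record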
#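 15 min RT preincubation of 1.5 nM cruzain with compound, then 2 uM Z-FR-AMC added; kinetic AMC fluorescence, 60 s delta. Triton X-100 0.01%, pH 5.5.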
# Active calls of the source: *; u = inconclusive; & = joins results of further samples. Unless noted, calls follow the shape of the dose curve; as a rule, active = well fitted curve in the direction sought with a large enough effect; inconclusive = small, poorly fitted or top-dose-only effect, or another doubt; inactive = no such curve, though single readings can be large; an effect the other way counts as inactive or inconclusive. Potency is read from the fitted curve at half-maximal effect. An excerpt; rates above refer to the full screens.
SMILES,Cruzain inh noDet,NS1 function inh,Cruzain Triton
NC(=O)C[C@@H](N)c1nn[nH]n1,8%,1%,8.9%
CCN(CC)CC[n+]1ccc2c(C)c3[nH]c4ccc(O)cc4c3c(C)c2c1,4%,-37%,4.9%
Cc1cc(=O)oc2c(OS(C)(=O)=O)c(OS(C)(=O)=O)ccc12,6%,0%,2.8%
C[C@]12CC[C@H]3c4ccc(O)cc4CC[C@@H]3[C@H]1CC[C@@H]2OC(=O)CCC1CCCC1,-10%,-14%,6.3%
CC(C)N(Cc1ccccc1)S(=O)(=O)c1n[nH]c(C(C)(C)C)n1,4%,-3%,1.4%
c1ccc(C(CCN2CC3CCC(CC3)C2)c2ccccc2)cc1,-3%,-8%,1.0%
FC(F)(F)c1cc(NC(=S)N2c3ccccc3-n3cccc3[C@H]2c2cccnc2)cc(C(F)(F)F)c1,-11%,-16%,-2.6%
NCCSc1nc2ccccc2s1,1%,1%,3.8%
COc1cc2cc(c1Cl)N(C)C(=O)C[C@H](OC(=O)C(C)C)[C@]1(C)O[C@@H]1[C@@H](C)[C@H]1C[C@](O)(NC(=O)O1)[C@@H](OC)/C=C\C=C(\C)C2,u,-16%,-0.1%
Nc1ccc(N=Nc2c(S(=O)(=O)O)cc3ccccc3c2S(=O)(=O)O)cc1,2%,0%,2.7%
CC(C)CC(=O)C[C@H](O)C(Cl)(Cl)Cl,4%,-12%,4.8%
OC[C@H](S)CS,2%,-36%,-1.3%
CC1(C)O[C@H]2[C@@H](O1)[C@@H](On1nnc3ccc(Cl)cc31)O[C@@H]2[C@@H]1COC(C)(C)O1,1%,-3%,-0.8%
O=P(O)(O)CCP(=O)(O)O,2%,-1%,1.8%
Nc1ncnc2c1ncn2[C@H]1O[C@@H](C(=O)OCCO)[C@@H](O)[C@H]1O,9%,-3%,-1.6%
FC(F)(F)c1nc(SCc2ccc(Cl)cc2)n[nH]1,-7%,-6%,4.4%
O=C(O)CSc1cc(-c2ccccc2)nc2ccccc12,1%,-5%,-4.8%
CCCC1c2c(ccc3ccccc23)Oc2ccc3ccccc3c21,u,-11%,17%
O=C(O)/C=C\c1c2ccc(=O)c(O)c-2oc2c(O)c(O)ccc12,5%,10%,-17%
C[C@@H](N)/C(N)=N/O,0%,6%,1.6%
C[C@H](NC(=O)c1ccc(Cl)c(Cl)c1)c1ccc(-c2ccccc2)cc1,0%,0%,0.3%
CN(C)Cc1cc(C(C)(C)C)cc(CN(C)C)c1O,-1%,6%,2.9%
C[N+](C)(C)[C@H](Cc1c[nH]c(=S)[nH]1)C(=O)O,8%,-3%,-0.9%
NS(=O)(=O)c1cc2c(cc1Cl)=NC(CCC(=O)O)=NS=2(=O)O,-1%,-3%,1.8%
CC(C)NCC[C@@H](O)c1cc2ccccc2o1,7%,-1%,-1.1%
COc1ccc(-c2nc(N)c3ncn([C@H]4O[C@@H](CO)[C@@H](O)[C@@H]4O)c3n2)cc1,-3%,-8%,3.7%
CN(C)CCNc1nc2c(c(=O)n(C)c(=O)n2C)n1C,2%,0%,1.5%
O=C(O)CCSCc1ccccc1,1%,3%,0.0%
O=C(O)CCSC1=NCCN1,-6%,1%,-2.0%
Cn1c(=O)c2[nH]cnc2n(C)c1=O.[CH2-][C@H](Cc1cccc2cc(C(=O)O)c(=O)oc12)OC.[Hg].[OH-],-2%,-13%,1.4%
O=S(=O)(O)c1ccc2c(N=Nc3cccc4ccccc34)c(O)c(S(=O)(=O)O)cc2c1,23%,-3%,0.7%
COc1ccc(NCc2c(O)ccc3ccccc23)cc1,-16%,3%,-2.3%
NC(=S)N/N=C\c1c[nH]c2ccccc12,0.32µM*,-1%,0.71µM*
O=[N+]([O-])c1ccc([C@@H](Nc2ccccc2)c2ccc3cccnc3c2O)cc1,-13%,2%,-5.5%
Cc1ncc(CSC(=N)N)n1Cc1ccccc1,6%,3%,-1.1%
COC(=O)CC[C@@H](C)C1CC[C@H]2[C@H]3CC[C@H]4C[C@@H]5CCC4(C)[C@@]3(O5)[C@@H](Br)[C@@H](Br)[C@@]12C (some centres not stated),-14%,3%,-2.5%
O=C(O)CNCCc1ccccc1,-5%,-5%,2.8%
COC1=C(C)C(=O)c2c(c(COC(N)=O)c3n2C[C@@H]2[C@@H]3N2C)C1=O (some centres not stated),10%,0%,-0.7%
CN(C)c1ccc(C2N([C@H](C#N)c3ccc(N(C)C)cc3)CCCN2[C@@H](C#N)c2ccc(N(C)C)cc2)cc1 (some centres not stated),-5%,-11%,1.8%
OC[C@@H](O)[C@@H](O)[C@@H](O)[C@@H](O)c1nc2ccc(Cl)cc2[nH]1,5%,1%,3.3%
c1ccc(CN2CC[C@@H](CNc3ncnc4ccccc34)C2)cc1,-8%,-5%,3.1%
O=C(O)/C=C\C(=O)Nc1ncn[nH]1,13%,1%,4.6%
NC1(C(=O)NC2(C(=O)O)CCCC2)CCCC1,-2%,-3%,2.4%
CC(C)(CN)CN,10%,0%,1.2%
C(=NCCN1CCOCC1)=NC1CCCCC1,-5%,-1%,-2.1%
COc1cc2c3cc1Oc1cc(ccc1O)C[C@@H]1c4c(cc(OC)c(O)c4Oc4ccc(cc4)C[C@H]3[N+](C)(C)CC2)CC[N+]1(C)C,16%,-5%,1.4%
Cc1cc(Cc2c(C)c(C)c(Cc3cc(C)cc(C(C)(C)C)c3O)c(C)c2C)c(O)c(C(C)(C)C)c1,-6%,-2%,4.6%
CC(C)C1=C[C@@]23CC[C@@H]4[C@](C)(CCC[C@@]4(C)C(=O)O)[C@@H]2C[C@@H]1[C@@H](C(=O)O)[C@@H]3C(=O)O,2%,-6%,1.5%
C[C@]12CC[C@H]3c4ccc(O)cc4CC[C@@H]3[C@H]1CC[C@@H]2OP(=O)(O)O,9%,-1%,3.0%
CSc1nc(C)cc(Nc2ccc(O)c(CN3CCOCC3)c2)n1,4%,3%,2.1%

# Going on with the list:
SMILES,Cruzain inh noDet,NS1 function inh,Cruzain Triton
Cc1cc2c(=O)[nH]c(N)nc2nc1C,6%,1%,-0.3%
Cc1nc2ccccc2nc1-c1ccc(N=[N+]([O-])c2ccc(-c3nc4ccccc4nc3C)cc2)cc1,8%,-8%,1.3%
c1ccc2cc(NCNc3ccc4ccccc4c3)ccc2c1,-8%,-40%,-0.9%
CCC1=C(C[C@H]2NCCc3ccccc32)C[C@@H]2c3cc(OC)c(OC)cc3CCN2C1,6%,-1%,-0.3%
NC1=N[C@H](c2ccc(Cl)cc2)N(c2ccc(S(=O)(=O)Nc3ncccn3)cc2)C(N)=N1,3%,0%,-4.1%
NC(N)=NC[C@H](N)C(=O)O,-6%,-3%,0.9%
NC[C@@H](O)CSCc1ccc(Cl)cc1,-17%,-9%,8.6%
NC[C@@H](O)CSP(=O)(O)O,11%,0%,3.2%
Nc1ccn([C@H]2O[C@H](CO)[C@@H]3[O][Sn]([c]4ccccc4)([c]4ccccc4)[O][C@H]32)c(=O)n1,6%,-7%,1.8%
O=C(O)[C@H](Cc1c[nH]c2ccccc12)N1C(=O)c2ccccc2C1=O,8%,8%,7.3%
Nc1nc(=O)c2[nH]cnc2n1O,3%,0%,1.1%
CC[C@@H](c1ccc2cc(O)ccc2c1)C(C)(C)C(=O)O,3%,-7%,-5.6%
O[C@]1(c2ccccc2)c2ccccc2NC2=NCCN21,0%,0%,3.8%
O=C(O)CCN1C(=S)CSC1=S,-1%,-4%,4.0%
C/C(=N\NC(=O)c1ccncc1)c1ccc2ccccc2c1O,-6%,-7%,-0.3%
CN1C[C@H](c2ccccc2)C(O)([C@]2(c3ccccc3)CN(C)C[C@@H](c3ccccc3)C2=O)[C@H](c2ccccc2)C1 (some centres not stated),10%,-3%,1.1%
N[C@H](C(=O)O)[C@@H](O)c1cnc[nH]1,6%,-1%,0.9%
Nc1ccc(N=Nc2ccc(-c3ccc(O)cc3)cc2)c2ccc(S(=O)(=O)O)cc12,10%,8%,-14%
C/C(=N/S(=O)(=O)c1ccc(Cl)c(Cl)c1)OCC(C)(C)C,-12%,0%,-7.8%
OCCCNCc1ccccn1,9%,-4%,3.3%
CC(=O)O[C@H]1CC[C@@]2(C)[C@@H](CC[C@H]3[C@H]2CC(=O)[C@@]2(C)[C@@H]3C[C@H]3CC(C)=CC(=O)[C@H]32)C1,-6%,-13%,-7.3%
BrC(c1cccc2ccccc12)c1cccc2ccccc12,3%,14%,-3.7%
CN(CCC(=O)O)S(=O)(=O)c1ccccc1,-10%,-2%,6.0%
O=C1C(=O)c2ccccc2C(O)=C1C(C1=C(O)c2ccccc2C(=O)C1=O)c1ccc(Cl)cc1,-1%,9%,-3.4%
O=C(O)c1cc(=O)[nH]c(SCc2ccccc2)n1,11%,3%,-7.5%
CCCC1CC(=O)OC1(C)C(=O)CSc1n[nH]c(-c2ccccc2)n1 (configuration not stated),1%,9%,-3.8%
CN1CCCC[C@@H]1CCN1c2ccccc2Sc2ccc(S(C)=O)cc21 (some centres not stated),13%&-18%,-13%,3.0%&-7.1%
O=C(CCN1CCCCC1)N1CCc2c([nH]c3ccccc23)[C@H]1c1cccnc1,5%,-5%,3.6%
CC1CCN(CC(=O)N2c3ccccc3Sc3cc4ccccc4cc32)CC1,3%,-6%,-3.4%
CC1=C(/C=C\C(=O)O)C(C)(C)CCC1,3%,-10%,2.0%
CO[C@@H]1/C=C\O[C@]2(C)Oc3c(C)c(O)c4c(O)c(c(CN(C)C)c(O)c4c3C2=O)NC(=O)/C(C)=C\C=C[C@@H](C)[C@@H](O)[C@H](C)[C@@H](O)[C@H](C)[C@H](OC(C)=O)[C@@H]1C,u,0%,-3.7%
CC(C)Oc1cc(O)c2c(c1)OCC=C2CCC(=O)O,-6%,-11%,1.4%
O=C(O)/C=C\C(=O)Nc1ccc2c(c1)C(=O)c1cc(F)ccc1-2,-8%,5%,-4.0%
O=P(O)(O)c1ccccc1 (tested in a mixture with another compound),5%,6%,1.5%
Clc1cccc(Cl)c1C(Nc1nncs1)Nc1nncs1,-9%,-10%,10.0%
O=C1C2C3C=CC(C2C(=O)N1CN1CCOCC1)C1C2C(=O)N(CN4CCOCC4)C(=O)C2C31 (configuration not stated),3%,8%,5.5%
O=C1c2ccccc2C(O)(O)[C@@]1(O)[C@]1(O)C(=O)c2ccccc2C1(O)O,-5%,-3%,0.6%
O=C(O)c1cccc(S(=O)(=O)NCCO)c1,8%,-7%,6.0%
C[C@H]1[C@H](C)CC[C@]2(C(=O)O)CC[C@]3(C)C(=CC[C@H]4[C@]3(C)C[C@@H](O)C3[C@](C)(CO)[C@H](O)[C@@H](O)C[C@]34C)[C@H]12 (some centres not stated),u,u,-2.7%
c1ccc2c(CSCc3cccc4ccccc34)cccc2c1,-13%,-8%,1.4%
S=C(S)NCCCn1ccnc1,-7%,0%,2.8%
C=C(C)COc1ccc2c(c1)CCC1C2CC[C@]2(C)C(=O)/C(=N/O)CC12 (some centres not stated),-8%,13%,1.0%
NC(=S)SCCC(=O)O,6%,2%,0.4%
CN(C)CS/C(N)=N/[C@H](O)C(Cl)(Cl)Cl,-6%,1%,-10%
CN(CC(=O)O)Cc1c(O)c(Cl)cc(Cl)c1Cl,8%,-3%,1.3%
C/C(=N/NC1=NCCN1)c1cn(C2=NCCN2)nc1C,13%,3%,-1.7%
[O-][N+]1(CC[N+]2([O-])CCCCC2)CCCCC1,5%,-3%,2.1%
N[C@H](Cc1c[nH]c2ccccc12)P(=O)(O)O,-5%,-3%,4.3%
Nc1ccccc1S[C@@H](C[N+](=O)[O-])c1ccc2c(c1)OCO2,-11%,-28%,-13%

# Profiles, quoted from the list:
# Shown for Nc1ccccc1S[C@@H](C[N+](=O)[O-])c1ccc2c(c1)OCO2 = Cruzain inh noDet = -11%; NS1 function inh = -28%; Cruzain Triton = -13%
# Shown for NC(=S)SCCC(=O)O = Cruzain inh noDet = 6%; NS1 function inh = 2%; Cruzain Triton = 0.4%
